Screening results deposited in PubChem BioAssay by Johns Hopkins Ion Channel Center.
KCNQ2 block: KCNQ2 potassium channel inhibitors, primary screen, cell-based, CHO-K1, FluxOR thallium flux, B-score (AID 2156); 20 min; active compounds read low; only compounds with negative scores are shown here; some inactives read as strong as hits; B-score at 10 µM; actives 1.1% (n = 310,000);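 active = fluorescence ratio B-score at most minus 3 library SDs, with starting brightness B-score within 2 library SDs, cut at about -5.5 in these data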
Target sequence (O88943 whole entry, looked up): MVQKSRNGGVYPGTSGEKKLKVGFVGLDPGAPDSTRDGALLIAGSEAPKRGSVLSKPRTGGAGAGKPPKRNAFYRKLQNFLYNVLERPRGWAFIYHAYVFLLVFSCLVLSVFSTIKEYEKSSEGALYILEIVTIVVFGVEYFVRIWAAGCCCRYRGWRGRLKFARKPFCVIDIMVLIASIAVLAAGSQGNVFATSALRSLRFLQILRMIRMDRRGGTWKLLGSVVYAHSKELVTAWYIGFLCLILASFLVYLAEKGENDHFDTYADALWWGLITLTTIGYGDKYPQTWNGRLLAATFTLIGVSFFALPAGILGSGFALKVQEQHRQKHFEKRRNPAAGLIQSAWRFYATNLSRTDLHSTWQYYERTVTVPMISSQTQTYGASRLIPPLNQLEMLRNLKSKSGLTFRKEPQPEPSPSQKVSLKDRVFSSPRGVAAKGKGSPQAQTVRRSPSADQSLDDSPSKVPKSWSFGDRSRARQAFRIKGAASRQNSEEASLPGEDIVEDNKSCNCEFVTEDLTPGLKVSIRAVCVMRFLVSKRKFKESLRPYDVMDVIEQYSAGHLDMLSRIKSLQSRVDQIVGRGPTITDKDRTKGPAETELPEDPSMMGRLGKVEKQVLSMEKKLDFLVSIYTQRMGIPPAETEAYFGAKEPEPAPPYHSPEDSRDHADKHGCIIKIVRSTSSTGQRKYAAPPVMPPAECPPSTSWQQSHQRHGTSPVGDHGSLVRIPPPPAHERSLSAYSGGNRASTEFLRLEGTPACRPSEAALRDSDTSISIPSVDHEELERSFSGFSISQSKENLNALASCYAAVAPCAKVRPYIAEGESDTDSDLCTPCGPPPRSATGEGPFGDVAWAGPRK
KCNQ2 block baseline: second read-out of KCNQ2 block, no call of its own (marks repeat the call); B-score; measured here: initial fluorescence intensity artifact check;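 brightness before thallium and not channel activity; 0 = typical well and far values either way flag optical interference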
* hit, by the source's call; i = inactive. Only part of the results is shown (hit frequency here may not be typical).

Compound | KCNQ2 block | KCNQ2 block baseline
CCOC(=O)CN1C(=O)C(Sc2n[nH]c(-c3ccc(C)cc3)n2)CCc2ccccc21 (configuration not stated) | i | 0.02
O=C(c1ccc(Cl)c([N+](=O)[O-])c1)N1CCN(Cc2ccc3c(c2)OCO3)CC1 | i | -0.01
O=C(O)Cc1ccc(NC(=O)Nc2cccc(Cl)c2)cc1 | i | -0.59
COC(=O)[C@@H]1C[C@@]2(O)[C@@H](O)[C@@H](O)[C@@H](O)C[C@H]2N1Cc1ccc(Cl)cc1 | i | -0.12
O=C(O)c1cc(-c2ccc3c(c2)OCO3)nc2ccc(Cl)cc12 | i | -0.09
COc1cccc(-n2nnc3c(=O)n(Cc4c(F)cccc4Cl)cnc32)c1 | i | 1.5
COc1ccc(-c2nn(CCC#N)cc2C(=O)Nc2cccc(C(=O)O)c2)cc1[N+](=O)[O-] | i | -0.67
O=C(O)CC12CC3CC(C1)CC(n1ncc(NCc4ccc(F)cc4)c(Cl)c1=O)(C3)C2 | i | 2.5
COc1cc(OC)c(-c2nnc(-c3ccc(OC)c(OC)c3OC)o2)cc1OC | i | -1.9
CC1CCCC(NC(=O)COC(=O)c2ccc(N(C)C)cc2)C1C (configuration not stated) | i | 0.17
CCc1cccc2c(C(=O)COC(=O)c3ccc([N+](=O)[O-])s3)c[nH]c12 | i | -0.38
CCc1ccc(N(CC(=O)Nc2nc3ccc(C)cc3s2)S(=O)(=O)c2c(C)noc2C)cc1 | i | 1.1
Cc1cc2c(cc1S(=O)(=O)N(C)c1ccccc1)NC(=O)CO2 | i | -1.4
CCOC(=O)C1CCN(C(=O)COc2ccc(Cl)cc2)CC1 | i | -0.08
CC(=O)Nc1ccc(S(=O)(=O)N2CCN(C(=O)c3cccnc3)CC2)cc1 | i | -0.08
Cc1cccc(C)c1NC(=O)Cn1cc(C=O)c2ccccc21 | i | 0.21
C[C@H](NC(=O)C1CC(=O)N(c2ccc(F)cc2)C1)C(=O)N1CCCCC1 (some centres not stated) | i | 1.1
CCOc1cc(CN2CCN(Cc3ccc(C)o3)C(CCO)C2)ccc1OC (configuration not stated) | i | 2.5
O=C(OCC(=O)c1cccc2ccccc12)c1ccc(CO)cc1 | i | -1.1
CCCCC(=O)Nc1nnc(SCC(=O)NC2CCCC2)s1 | i | -0.76
CCCNC(=O)CCC(NS(=O)(=O)c1ccc(C)cc1)C(=O)NCCC (configuration not stated) | i | -0.99
CCN1CCN(CC(=O)Nc2ccc(C)cc2C)C(=O)C1=O | i | 0.94
CCCCNC(=S)Nc1cccc(S(=O)(=O)NC2=NCCC2)c1 | i | 0.13
COc1ccccc1NC(=O)c1ccc(C(=O)c2ccccc2)o1 | i | -1
CC(=O)Nc1ccc(NC(=O)c2c(C)nn(-c3ccccc3)c2Cl)cc1C | i | -0.31
CC1(C(=O)OCC(=O)NNC(=O)COc2ccc(Cl)cc2)CC1(Cl)Cl (configuration not stated) | i | 0.42
CCCCCn1c(CN2CCN(c3cccc(Cl)c3)CC2)nc2c1c(=O)n(C)c(=O)n2C | i | -0.12
C#CCN1c2ccccc2Sc2cccnc21 | i | 1
O=C1CCCN1CCCNc1ccc(S(=O)(=O)N2CCCCC2)cn1 | i | 2
Nc1nnc(-c2ccccc2)s1 | i | 0.72
Cc1ccc(C(=O)NC2CCCCNC2=O)cc1 (configuration not stated) | i | -1.3
Cc1ccc2c(c1)cc(C(=O)NCc1ccccc1)n2C | i | 2.8
CC(=O)Nc1cccc(NC(=O)CCCC(=O)O)c1 | i | -0.48
O=C(COc1ccc(Br)cc1)Nc1ccc(-c2nnc(-c3ccco3)o2)cc1 | i | 1.3
CCOC(=O)CNC(=O)c1sc2ncnc(N3CCc4ccccc4C3)c2c1C | i | -0.77
CCOc1ccc(-c2nc3ccccc3c(=O)o2)cc1 | i | 0.76
C=CCn1c(=O)c2ccccc2n2c(SCc3nc4ccccc4s3)nnc12 | i | -1.9
Cc1ccc(NC(=O)OCCN2CCN(S(=O)(=O)c3ccc(C)cc3)CCC2=O)cc1 | i | -2
Cc1ccc(N=Nc2cc(C)ccc2O)c(C)c1 | i | 1
Cc1ccc(NC(=O)N(Cc2nc3ccccc3c(=O)[nH]2)Cc2cccs2)cc1 | i | 0.19
COC(=O)C(Oc1ccc2c(-c3ccc(OC)cc3)cc(=O)oc2c1)c1ccccc1 (configuration not stated) | i | -1.1
CCOC(=O)CSc1nc2ccc(S(=O)(=O)N3CCOCC3)cc2[nH]1 | i | -0.58
CCn1c(=O)n(CC)c2cc(N3CCCC3)c(NC(=O)c3cccc(OC)c3)cc21 | i | -1
O=C(NCCCn1ccnc1)c1ccc2nccnc2c1 | i | 4.7
CCn1cc(SCC(N)=O)c2ccccc21 | i | -2
CC1(C)OC(C(O)(c2ccccc2)c2ccccc2)[C@@H](C(O)(c2ccccc2)c2ccccc2)O1 (some centres not stated) | i | -0.66
COc1ccc(C(=O)Nc2nc3ccccc3s2)cc1 | i | 0.01
CCCCn1c(N)c(N(CCC(C)C)C(=O)c2sc3nc4n(c(=O)c3c2C)CCC4)c(=O)[nH]c1=O | i | -1.3
COc1ccc(NC(=O)C2CCCNC2)cc1OCC(C)C (configuration not stated) | i | 1.3
COc1ccccc1/C=C/C(=O)N1CCOCC1 | i | -1.2
COc1ccc(C2C(Oc3ccccc3)C(=O)N2c2ccc(C)c(C)c2)cc1OC (configuration not stated) | i | -0.45
COc1cc(/C=C/C(=O)O)cc(S(=O)(=O)N2CCc3ccccc3C2)c1OC | i | 1.9
Cc1ccc(-n2c(SCC(=O)Nc3ccc4c(c3)OCO4)nnc2-c2ccccn2)cc1 | i | 1.7
CCCCn1c(N)c(N(CC)C(=O)c2cc(CC)c(C)s2)c(=O)[nH]c1=O | i | 0.29
CN(c1ccccc1)C(c1ccc(F)cc1)c1nnnn1CC1CCCO1 (configuration not stated) | i | 0.14
CCCCN(CCCC)CCNC(=O)c1cn(CC)c2ccc(S(=O)(=O)N3CCCC3)cc2c1=O | i | -0.35
Cc1nccn1CC(=O)N/N=C/c1ccccc1O | i | 0.74
CC1=C(NCCc2ccccc2)CCC1=O | i | 0.03
O=C(CC(=O)Nc1ccc(Cl)cc1Cl)Nc1ccc(Cl)cc1Cl | i | -0.07
Cc1cccc(NC(=O)Cn2c(=O)n(CCc3c[nH]c4ccccc34)c(=O)c3cccnc32)c1 | i | 0.05

Later entries.
Compound | KCNQ2 block | KCNQ2 block baseline
CC(NC(=S)NC1CCCCC1)C(c1cccs1)N1CCOCC1 (configuration not stated) | i | 0.05
COc1ccc(COc2cc(-c3cccc(OC)c3)nc3ccc(NC(=O)c4ccc(Cl)cc4)cc23)cc1 | i | -0.92
COc1ccccc1C(=O)NCc1ccc(-c2nc3ccccc3s2)cc1 | i | 0.97
O=C(NN1C(=O)c2ccccc2C1=O)C1CCCCC1 | i | 0.53
CC(C)(C)OC(=O)[C@H](Cc1ccccc1)NC(=O)c1nc[nH]c1C(=O)N[C@@H](Cc1ccccc1)C(=O)OC(C)(C)C | i | -1.8
COc1cc(OC)cc(C(=O)N(CCCN2C(=O)c3cccc4cccc(c34)C2=O)c2cccc(OC)c2)c1 | i | 0.21
O=c1c2ccccc2nc(SCc2ccncc2)n1CC1CCCO1 (configuration not stated) | i | 0.34
CCOC(=O)N1CCN(Cc2nc3cc(NC(=O)c4cccs4)ccc3n2CC)CC1 | i | -0.73
COc1ccccc1/C=N/NC(=O)CN(C1=NS(=O)(=O)c2ccccc21)c1ccccc1 | i | 0.91
CC(C)OP(C)(=O)CN1CCN(CP(C)(=O)OC(C)C)CC1 (configuration not stated) | i | 1.1
O=[N+]([O-])c1ccc(N/N=C/c2cccs2)nc1 | i | -2.3
COc1ccc(N2C(=NC(=O)C3CCCCC3)SC3CS(=O)(=O)CC32)cc1OC (configuration not stated) | i | -1.8
CCOc1ccc(C2C(C(=O)/C=C/c3ccco3)=C(O)C(=O)N2CCN2CCOCC2)cc1OC (configuration not stated) | i | -1.3
CC12CCC(=O)N1C(C(=O)NNC(=O)COc1ccc(Br)cc1)CS2 (configuration not stated) | i | 0.18
O=C(OCc1ccc(F)cc1Cl)c1ccccn1 | i | -1.9
Cc1cccc(NC(=O)CSc2ccc(-c3ccccn3)nn2)c1C | i | -1.5
CC(/C=C/c1ccc2c(c1)OCO2)=N\NC(=O)COc1ccccc1C | i | 0.29
Cc1ccc(F)cc1NC(=O)c1c(-c2ccccc2)noc1C | -8.1* | -0.91*
COc1cccc(C2c3[nH]c4ccccc4c3CCN2CCCn2cccn2)c1 (configuration not stated) | i | 2.4
CCOc1ccc(N2C(=O)/C(=C/c3cccs3)N(C)C2=S)cc1 | i | 0.89

Single records, from the list above.
CC1CCCC(NC(=O)COC(=O)c2ccc(N(C)C)cc2)C1C (configuration not stated) reads KCNQ2 block = i; KCNQ2 block baseline = 0.17
O=C(O)c1cc(-c2ccc3c(c2)OCO3)nc2ccc(Cl)cc12 reads KCNQ2 block = i; KCNQ2 block baseline = -0.09
COC(=O)[C@@H]1C[C@@]2(O)[C@@H](O)[C@@H](O)[C@@H](O)C[C@H]2N1Cc1ccc(Cl)cc1 reads KCNQ2 block = i; KCNQ2 block baseline = -0.12

Next entries.
Compound | KCNQ2 block | KCNQ2 block baseline
COc1ccc(OC2CCN(S(=O)(=O)c3ccc(C(C)=O)cc3)CC2)cc1 | i | 0.05
CN(C)c1ccc(C(=O)N(Cc2ccccc2)Cc2ccccc2)cc1 | i | 0.9
Cc1cc(Cl)ccc1OCC(=O)n1cc(C(=O)c2cc(Cl)ccc2O)cn1 | i | -0.62
COC(=O)c1ccc(N2Cc3ccccc3/C2=N\C(=O)Nc2ccccc2)cc1 | i | -0.09
C/C(=N\NC(=O)c1c([N+](=O)[O-])c(C)nn1C)c1ccc(NC(=O)c2ccc(C)o2)cc1 | i | 1.8
O=C(NC1CCCCC1)c1ccccc1-c1ccccc1 | i | 2.4
Cc1nnc(Nc2ccc(O)cc2)[nH]c1=O | i | -0.25
COc1cccc(C(=O)NNC(=O)Cc2ccc([N+](=O)[O-])cc2)c1 | i | 0.01
COc1cc(-c2c(C(C)=O)c(C)nc3c2C(=O)c2ccccc2-3)cc(OC)c1OC | i | -2.1
Cn1c(SCC(=O)N2c3ccccc3CCc3ccccc32)nnc1-c1ccc(O)cc1 | -5.8* | 1.6*
CC1=Nn2c(nnc2-c2ccccc2F)SC1 | i | 1.9
O=C(CSc1nnc(CNC(=O)c2ccc(F)cc2)o1)NCc1ccc(F)cc1 | i | -0.8
CCc1ccc(NC(=O)COC(=O)CN2C(=O)COc3ccccc32)cc1 | i | 0.81
C=CS(=O)c1sc(Cl)c(N2CCOCC2)c1[N+](=O)[O-] (configuration not stated) | -15* | -3.4*
Cc1ccc(-n2c(SCC(=O)c3c(N)n(C)c(=O)n(C)c3=O)nc3sc4c(c3c2=O)CCCC4)c(C)c1 | i | 0.65
COc1ccc(N(CCC(=O)O)S(=O)(=O)c2ccc(C)c(C)c2)cc1 | i | 2
COC(=O)[C@@]12CCCN1[C@H](c1ccc(-c3cccc(Cl)c3)cc1)[C@H]1C(=O)N(C)C(=O)[C@H]12 | i | 0.09
COc1cc(SC)ccc1C(=O)N1CCN(Cc2ccc3c(c2)OCO3)CC1 | i | 0.89
Cc1ccc(-c2nnc(-c3ccccc3)c(-c3ccccc3)n2)cc1 | i | 1.1
N#C/C(=C\c1ccc(OC(=O)c2cccs2)cc1)c1nc2ccccc2[nH]1 | i | -0.87

Three entries out of the list, sorted by length of the SMILES, ascending:
Compound | KCNQ2 block | KCNQ2 block baseline
CN(C)c1ccc(C(=O)N(Cc2ccccc2)Cc2ccccc2)cc1 | i | 0.9
N#C/C(=C\c1ccc(OC(=O)c2cccs2)cc1)c1nc2ccccc2[nH]1 | i | -0.87
Cc1ccc(-n2c(SCC(=O)c3c(N)n(C)c(=O)n(C)c3=O)nc3sc4c(c3c2=O)CCCC4)c(C)c1 | i | 0.65

(listing goes on)
Compound | KCNQ2 block | KCNQ2 block baseline
N=C1S/C(=C\c2cccc3ccccc23)C(=O)N1c1ccc(F)cc1 | i | 1.1
CC(C)(C)C1CCc2c(sc(NC(=O)c3cccs3)c2C(=O)N2CCCCC2)C1 (configuration not stated) | -8.1* | 0.89*
CSc1ccc(NC(=O)Nc2ccccc2C(N)=O)cc1 | i | -0.22
CCCCCC(O)CCc1n[nH]c(=S)n1-c1ccccc1 (configuration not stated) | i | -0.38
Cc1ccc(-n2c(=O)[nH]cc(C(=O)N3CCc4ccccc43)c2=O)cc1 | i | -0.63
Cc1cccc(-c2cc3nc(C)cc(C)n3n2)c1 | i | 1.1
Cn1nc(C(F)(F)F)c(-c2cccc(C(F)(F)F)c2)c1NC(=O)Nc1ccc(F)cc1 | i | 0.68
COc1ccc(/C=C/C(=O)NC(=S)Nc2ccc(S(=O)(=O)N=C(N)N)cc2)cc1OC | i | -0.65
CNc1oc(Cc2ccccc2)nc1S(=O)(=O)c1ccccc1 | i | 0.77
COc1ccc(N2CCN(C(=O)CN(C)S(=O)(=O)c3cnc[nH]3)CC2)cc1 | i | -0.5
COc1ccc(C(=O)/C=C/c2ccc(OC3CSC3)cc2)cc1 | i | 1.6
COc1ccc(-c2nnc(OC)c3ccccc23)cc1 | i | 0.06
COc1cc(NC(=O)CCCNC(=O)c2ccc(Cl)cc2)cc(OC)c1OC | i | -0.05
O=C(Nc1cccc(-c2ccc(N3CCCCC3)nn2)c1)C(F)(F)F | i | 0.2
